Screening results from PubChem.
eIF4H FP inh = human eIF4H binding inhibitors, primary screen, translation initiation inhibitor project, biochemical, uHTS, fluorescence polarization. 290,000 tested, 0.94% active. eIF4H fluorescence polarization binding assay. inhibition, % at 35 µM. Eukaryotic translation initiation factor 4H (Homo sapiens), Q15056;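 active = 50% or more with normal probe brightness, or confirmed in later tests; inconclusive = above 50% with abnormal brightness, or retests that disagree; inactive = below 50% or failed in later tests; about a fifth of its hits are not listed in these tables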;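 also: calls also rest on retests at 20 µM and on dose response follow-up; 0% = protein and probe with vehicle and 100% = probe without protein; strong numbers were not always called active; many hits fall short of the cut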
Env fusion inh = inhibitors of HIV-1 Env-driven cell-cell fusion, primary screen, HeLa-JRFL effector, CEM21 target cells, luciferase; inhibition, % at 12.3 µM; 360,000 tested, 1.1% active; AID 651610, 2012;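 active = mean replicate inhibition score of at least 50 and every replicate individually at or above 50; inconclusive = only one of the two criteria met; inactive = mean below 50 and not all replicates reaching 50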;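 also: 0% = plate neutral controls and 100% = maraviroc near 300 nM; one replicate is shown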
MT1-MMP act inh = blockers of MT1-MMP proenzyme processing, primary screen, HT1080 RFP-PRO-GFP cells, GFP/RFP fluorescence | GFP/RFP ratio change, % at 20 µM | 360,000 tested, 0.061% active | GFP/RFP ratio fluorescence, overnight; percent of plate control window, DMSO zero;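 active = GFP/RFP ratio change of at least 30% with cell ATP level not reduced by more than half and red fluorescence within 50% of control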; also: strong numbers were not always called active
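Assay system: HT1080 cells carrying an RFP-PRO-GFP reporter | Dosing: Single dose of 20 µM compound, 1% DMSO final | Incubation: Cells overnight before dosing, compound overnight, 37 °C, 5% CO2 | Evaluation: GFP/RFP fluorescence ratio | Control set: DMSO and RFP-L50D-GFP cell wells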
Yeast UUG start = modulators of yeast start codon fidelity, primary screen, whole organism, S. cerevisiae, single point, plate reader; S. cerevisiae UUG-firefly luciferase reporter, luminescence/redox ratio; AID 602363, 2012; activity score, % at 18.7 µM; 350,000 tested, 0.13% active;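 active = replicate mean at a twofold rise or more, about +100% in these data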;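 also: firefly luciferase made from a UUG start codon reports start codon fidelity; reporter light over untreated wells divided by growth signal over untreated wells; some hits fall short of that in this replicate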
CSC inhib = cancer stem cell viability inhibitors, primary screen, luminescence. cancer stem cell-like cells viability. inhibition, % at 7.5 µM. 300,000 tested, 1.1% active;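 active = mean at 75% or more and at least half the replicates too; inconclusive = mean and replicates disagree; tested in HMLE shEcad cells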;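 also: 0% = median of negative and 100% = median of positive control wells; the first replicate is given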
Rce1 inhib = yeast Rce1p protease inhibitors, primary screen, biochemical, fluorescence, cell-free homogeneous | yeast membranes, quenched prenylated peptide cleavage fluorescence | calls only | 290,000 tested, 0.27% active | AID 2563, 2010;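 active = fall in fluorescence gain of 50% or more versus controls, with final raw signal at or below 3038400; inconclusive = same 50% fall but final raw signal above 3038400; inactive = fall in fluorescence gain under 50%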;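 also: plate controls were neutral control wells for no effect and wells lacking membranes for full effect; tested at 10 µM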
Target sequence (Q03530 whole entry, looked up): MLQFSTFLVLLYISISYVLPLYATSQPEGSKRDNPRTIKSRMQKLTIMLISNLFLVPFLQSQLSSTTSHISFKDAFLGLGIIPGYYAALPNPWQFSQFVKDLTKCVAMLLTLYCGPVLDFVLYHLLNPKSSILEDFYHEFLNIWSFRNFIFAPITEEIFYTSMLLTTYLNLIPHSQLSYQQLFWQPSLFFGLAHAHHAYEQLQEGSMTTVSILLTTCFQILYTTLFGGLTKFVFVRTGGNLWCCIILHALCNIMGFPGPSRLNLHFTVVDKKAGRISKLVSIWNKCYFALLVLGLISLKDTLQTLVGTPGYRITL
PABP FP inh = PABP poly(A) RNA binding inhibitors, primary screen, biochemical, fluorescence polarization, uHTS; Polyadenylate-binding protein 1 (Homo sapiens), P11940; inhibition, % at 35 µM; 290,000 tested, 1% active;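 active = 50% or more with normal probe brightness, or confirmed in later tests; inconclusive = above 50% with abnormal brightness, or retests that disagree; inactive = below 50% or failed in later tests; about a fifth of its hits are not listed in these tables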;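 also: calls also rest on retests at 20 µM and on dose response follow-up; controls were probe without protein and protein plus probe with vehicle; some compounds called inactive have numbers as strong as hits; many hits fall short of the cut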
Target sequence (P11940 whole entry, looked up): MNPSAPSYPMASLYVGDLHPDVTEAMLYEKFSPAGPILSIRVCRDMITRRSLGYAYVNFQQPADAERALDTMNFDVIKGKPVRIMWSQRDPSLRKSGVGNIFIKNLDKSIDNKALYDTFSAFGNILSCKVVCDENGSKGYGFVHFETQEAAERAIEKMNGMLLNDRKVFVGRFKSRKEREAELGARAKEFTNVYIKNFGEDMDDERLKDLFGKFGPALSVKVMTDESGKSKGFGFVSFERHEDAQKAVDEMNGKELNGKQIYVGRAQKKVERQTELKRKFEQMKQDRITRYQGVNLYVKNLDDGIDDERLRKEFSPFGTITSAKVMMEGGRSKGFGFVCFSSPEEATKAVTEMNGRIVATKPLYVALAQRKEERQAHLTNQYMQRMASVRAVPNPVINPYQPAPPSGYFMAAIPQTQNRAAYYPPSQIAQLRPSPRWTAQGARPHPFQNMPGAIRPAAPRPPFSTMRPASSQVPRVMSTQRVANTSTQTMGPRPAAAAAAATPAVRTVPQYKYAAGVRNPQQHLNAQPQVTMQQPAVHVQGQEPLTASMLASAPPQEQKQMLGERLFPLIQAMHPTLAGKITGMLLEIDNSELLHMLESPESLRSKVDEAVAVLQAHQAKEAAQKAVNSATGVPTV
MT1-MMP act inh RFP = further read-out of MT1-MMP act inh, marked with its call; RFP signal change, %; measured here: RFP expression control read;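 0 = vehicle wells; hits needed this value within 50% of zero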
* marks the source's active call; other numbers are inactive results; i = inactive; ? = inconclusive; . = no result given.

SMILES | eIF4H FP inh | Env fusion inh | MT1-MMP act inh | MT1-MMP act inh RFP | Yeast UUG start | CSC inhib | Rce1 inhib | PABP FP inh
O=S(=O)([N-]c1nc2ccccc2nc1-n1cc[n+](Cc2ccccc2)c1)c1ccc(Cl)cc1 | -1 | -59 | -7 | -3 | -2 | -4 | i | 4
C=CCn1c(C)cc(C(=O)CSc2nnc(-c3cccc(S(=O)(=O)N(CC)CC)c3)o2)c1C | 7 | -4 | -5 | -14 | -15 | 32 | i | -8
CCOc1ccc(C(=O)NCC(=O)OCc2nnc(-c3ccccc3)o2)cc1OCC | . | -3 | 2 | 3 | 0 | . | . | .
CCCCn1c(NCc2cc(C)ccc2O)nc2ccccc21 | . | 3 | 2 | 0 | -19 | . | . | .
C(=N\Nc1nc(-c2ccccc2)cs1)/c1ccncc1 | -13 | -38 | -4 | -2 | . | -7 | i | 7
Cc1[nH]c(=O)[nH]c(=O)c1S(=O)(=O)N1CCCC(C(=O)NCCc2ccccc2)C1 (centres undefined) | -2 | . | 3 | 5 | -15 | 2 | i | 2
C[C@@H](C(=O)Nc1ccc2ccccc2c1)[C@H]1C[C@]1(C)[C@H](NS(=O)(=O)c1ccccc1)c1ccccc1 | 0 | 24 | . | . | . | -5 | . | -3
Cc1ccc(NC(=O)COC(=O)CCC(=O)c2cccs2)cc1S(=O)(=O)N1CCOCC1 | 9 | -97 | 9 | 6 | 6 | 2 | i | 3
COc1ccc2cc(C(c3nnnn3C(C)(C)C)N3CCc4ccccc4C3)c(=O)[nH]c2c1 (centres undefined) | -4 | . | . | . | . | 14 | . | 3
CCCCn1c(SCC(=O)N2c3ccccc3Sc3ccccc32)nc2c1c(=O)n(C)c(=O)n2C | -8 | . | -16 | -19 | -16 | 3 | i | 1
CCOC(=O)Cc1csc(NC(=O)c2cnc3scc(C)n3c2=O)n1 | . | 0 | 5 | 2 | -1 | -11 | i | .
O=C(COC(=O)c1ccc(S(=O)(=O)NCc2ccco2)cc1)Nc1ccc(Cl)cn1 | -8 | 1 | 0 | 5 | . | -9 | i | 22
Cc1ccc(-c2[nH]c3ccccc3c2SCCN)cc1 | -4 | -25 | -9 | -4 | . | 8 | i | -5
CCc1nc2nc(C)c(NS(=O)(=O)c3cccs3)c(=O)n2[nH]1 | 0 | 1 | -1 | 2 | -9 | -6 | i | 10
O=C(Cn1ncc2ccccc21)N1CCN(c2cccc(C(F)(F)F)c2)CC1 | 5 | . | 3 | -2 | -25 | -12 | i | -3
O=C(CC(c1ccccc1)(c1ccccc1)c1ccccc1)N[C@@H](Cc1ccccc1)C(=O)O | 36 | 3 | -2 | 2 | -9 | -20 | i | 26
Cc1cc(C)cc(N(C(C)C(=O)N2CCOCC2)S(C)(=O)=O)c1 (centres undefined) | -6 | 6 | -1 | -5 | . | 13 | i | -5
O=C(N/N=C\c1ccccn1)C1c2ccccc2Oc2ccccc21 | 9 | 15 | 3 | 1 | . | 0 | i | 14
CC(C)(C)CC(=O)Nc1nc(C(N)Cc2ccc(C(F)(F)F)cc2)cs1 (centres undefined) | . | 17 | -4 | 1 | -35 | . | . | .
CC(C)NC(=O)CSc1nnc(COc2ccccc2Cl)o1 | -6 | . | -1 | 0 | -12 | -7 | i | 5
CC(Oc1cccc(Cl)c1)C(=O)N1CCCN(C)CC1 (centres undefined) | -12 | . | -2 | 2 | -18 | -4 | i | -3
COCCN(C(=O)COC(=O)c1cc(C)oc1C)c1c(N)n(Cc2ccccc2)c(=O)[nH]c1=O | . | -65 | 0 | -1 | -13 | -14 | i | .
O=C(Cn1nc(Cc2ccncc2)c2ccccc2c1=O)N1CCc2ccccc2C1 | -2 | 24 | 2 | 7 | -7 | -2 | . | -1
O=C(CSc1nnc(-c2ccc(F)cc2)c2ccccc12)Nc1ccccc1Cl | 7 | 1 | -1 | 0 | -13 | 0 | i | 7
O=C(Cc1ccc([N+](=O)[O-])cc1)NNC(=O)c1cccs1 | -9 | -2 | 0 | 4 | 7 | -9 | i | 0

Taken from the entries so far (9 entries):
SMILES | eIF4H FP inh | Env fusion inh | MT1-MMP act inh | MT1-MMP act inh RFP | Yeast UUG start | CSC inhib | Rce1 inhib | PABP FP inh
C[C@@H](C(=O)Nc1ccc2ccccc2c1)[C@H]1C[C@]1(C)[C@H](NS(=O)(=O)c1ccccc1)c1ccccc1 | 0 | 24 | . | . | . | -5 | . | -3
Cc1ccc(NC(=O)COC(=O)CCC(=O)c2cccs2)cc1S(=O)(=O)N1CCOCC1 | 9 | -97 | 9 | 6 | 6 | 2 | i | 3
COc1ccc2cc(C(c3nnnn3C(C)(C)C)N3CCc4ccccc4C3)c(=O)[nH]c2c1 (centres undefined) | -4 | . | . | . | . | 14 | . | 3
CCCCn1c(SCC(=O)N2c3ccccc3Sc3ccccc32)nc2c1c(=O)n(C)c(=O)n2C | -8 | . | -16 | -19 | -16 | 3 | i | 1
CCOC(=O)Cc1csc(NC(=O)c2cnc3scc(C)n3c2=O)n1 | . | 0 | 5 | 2 | -1 | -11 | i | .
O=C(COC(=O)c1ccc(S(=O)(=O)NCc2ccco2)cc1)Nc1ccc(Cl)cn1 | -8 | 1 | 0 | 5 | . | -9 | i | 22
Cc1ccc(-c2[nH]c3ccccc3c2SCCN)cc1 | -4 | -25 | -9 | -4 | . | 8 | i | -5
CCc1nc2nc(C)c(NS(=O)(=O)c3cccs3)c(=O)n2[nH]1 | 0 | 1 | -1 | 2 | -9 | -6 | i | 10
O=C(Cn1ncc2ccccc21)N1CCN(c2cccc(C(F)(F)F)c2)CC1 | 5 | . | 3 | -2 | -25 | -12 | i | -3

More entries follow:
SMILES | eIF4H FP inh | Env fusion inh | MT1-MMP act inh | MT1-MMP act inh RFP | Yeast UUG start | CSC inhib | Rce1 inhib | PABP FP inh
COc1ccccc1/C=C(/C#N)C(=O)O | 10 | 13 | 5 | -7 | -18 | -6 | i | 8
Cc1c(C(=O)N(C)c2ccc(Cl)cc2)cnn1-c1ccccc1 | 9 | -26 | 1 | -2 | -4 | -10 | i | 3
COc1ccc(NC(=O)c2[nH]c(C)c(C(C)=O)c2C)cc1S(=O)(=O)N1CCOCC1 | 3 | -2 | 14 | 12 | . | 3 | i | 2
Cc1ccccc1NC(=O)CSc1nc2ccccc2o1 | -4 | -67 | 0 | -2 | -16 | 14 | i | -8
CCOC(=O)c1ccc(-c2c(-c3ccccc3OC)oc3ccccc23)cc1F | . | 8 | -1 | -4 | -13 | 21 | . | .
Cc1nc2ccccc2cc1C(=O)N/N=C/c1cccs1 | 18 | . | -1 | 1 | -18 | -4 | i | -1
CCN(CC)C(=O)COc1ccc2c3c(c(=O)oc2c1C)CCCC3 | 2 | -263 | 2 | -3 | -17 | -5 | i | -6
CC(=NCC1CCNCC1)C1=C(O)CC(C)(C)CC1=O | -9 | . | 1 | 7 | -8 | -7 | i | 21
NS(=O)(=O)c1ccc(Nc2ccc([N+](=O)[O-])c3nonc23)cc1 | ? | -1 | -39 | 0 | 5 | -9 | i | ?
CC(NC(=O)CSc1ccccc1C(=O)O)C1CC2CCC1C2 (centres undefined) | 1 | -11 | -2 | -4 | . | -9 | i | 11
COc1cccc(/C=C2\SC(=S)N(CCC(=O)NCCc3ccc(O)cc3)C2=O)c1 | -10 | -21 | 3 | 0 | -12 | 51 | i | 11
CC(C)c1cc(C(=O)N2CCCC(C(=O)c3ccc4ccccc4c3)C2)on1 (centres undefined) | -7 | 12 | 0 | 0 | 9 | 2 | i | -1
Cn1c(-c2ccc(F)cc2)cnc1NCc1ccc(F)cc1 | -10 | -16 | -5 | -10 | -3 | -3 | i | -6
CC(C)Oc1cccc(C(=O)Nc2ncn[nH]2)c1 | -6 | -17 | -2 | 4 | -9 | -20 | i | -10
COc1ccccc1Cc1noc(C(C)(C)NC(=O)c2ccccc2)n1 | -6 | 0 | 3 | 3 | 6 | -3 | i | -5
O=C(Cc1ccc(Cl)cc1)c1ccc(O)cc1 | -2 | -22 | 1 | -3 | . | 9 | i | -2
O=C(O)c1ccc(-n2c(O)c(C=C3N=c4ccccc4=N3)sc2=S)cc1 | 5 | 9 | -5 | 1 | -19 | -5 | i | 8
COc1ccccc1N(C)S(=O)(=O)c1ccc(Cl)c(C(=O)NC2=NCCS2)c1 | 2 | 26 | 0 | -4 | -12 | -11 | i | -8
O=C(c1ccc(Cl)c(S(=O)(=O)N2CCOCC2)c1)N1CCN(Cc2ccccc2)CC1 | 7 | -86 | 6 | 3 | -17 | -2 | i | 1
O=C(Nc1cccc(C(=O)Nc2ccc(F)cc2F)c1)c1ccccc1 | 4 | -10 | 3 | 0 | 8 | -8 | i | -2
COc1cc(CCC(=O)Nc2nnc(-c3cccnc3)s2)cc(OC)c1OC | -3 | 5 | 1 | 0 | -13 | 7 | i | 2
CC1(C)CC(=O)C2=C(C1)c1c(ccc3ncccc13)NC2c1cccs1 (centres undefined) | ? | 33 | -11 | -14 | -17 | 58 | i | 8
CCC(C)(C)NC(=O)C1CCN(c2nc(OC)nc(OC)n2)CC1 | -2 | 16 | 1 | 4 | . | -4 | i | 0
CC(C(=O)NC(C)(C)C)N(C(=O)CS(=O)CC(=O)Nc1ccc(F)cc1)C1CCCC1 (centres undefined) | -11 | 5 | 1 | 4 | 11 | -14 | i | 2
Cc1cc(NS(=O)(=O)c2ccc(NC(=O)CCCOc3ccc(Cl)cc3)cc2)no1 | -2 | -25 | 0 | -1 | -14 | -10 | i | 13

(more compounds)
SMILES | eIF4H FP inh | Env fusion inh | MT1-MMP act inh | MT1-MMP act inh RFP | Yeast UUG start | CSC inhib | Rce1 inhib | PABP FP inh
CSc1nc(SCC(=O)O)c2c3c(sc2n1)COC(C)(C)C3 | -16 | -2 | 1 | 0 | -9 | -16 | i | -1
O=C(O)CC/C(=C\c1ccc(N2CCOCC2)c([N+](=O)[O-])c1)c1nc2ccccc2s1 | 3 | -5 | 4 | 6 | . | . | i | 3
CCOC(=O)c1sc(=S)sc1SCc1cccc(C(F)(F)F)c1 | -2 | . | -2 | 0 | -7 | 6 | i | -4
Fc1cccc2sc(Nc3nc4cc5c(cc4s3)OCO5)nc12 | 4 | -101 | -4 | 3 | -7 | 63 | i | -6
CCOc1ccc(S(=O)(=O)NC2CCCC2)cc1C | -1 | -16 | 2 | 1 | -36 | -8 | i | -3
COc1ccc(NC(=O)CCCC(=O)OCC(=O)c2cccc(OC)c2)cc1 | -10 | 2 | -1 | 2 | . | 14 | i | 2
CC(CCc1ccccc1)NC(=O)CN1CCc2ccccc2C1 (centres undefined) | -7 | -1 | 0 | 0 | -5 | . | i | -11
COc1ccc(C2C(C(C)=O)=C(O)C(=O)N2CCc2ccccc2)c(OC)c1 (centres undefined) | -21 | -13 | 1 | -3 | -4 | -6 | i | 2
COc1ccc(/C=C(\NC(=O)c2cccs2)C(=O)Nc2cccc3ccccc23)cc1OC | -17 | -49 | -1 | -2 | -8 | 11 | i | -5

Random draw from the library; about 3% have a hit in one of these screens.
